MT1-MMP reporter: inhibitors of MT1-MMP promoter transcription, cell-based, luciferase reporter, luminescence (AID 618). MT1-MMP promoter luciferase reporter cells, luminescence. hit rate 0.62% among 87,000. calls from a first round at 10 µM; hits with a dose series show EC50 in µM;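 active = over half of the reporter light lost at 10 µM or EC50 under 50 µM; inactive = the rest and hits that failed the dose series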;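 also: actives suppress MT1-MMP promoter-driven transcription so potencies describe inhibitors; HT1080 fibrosarcoma cells; overnight exposure; toxic or luciferase-blocking compounds were not removed from the actives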
WNV protease inh: inhibitors of WNV NS2B-NS3 protease, primary screen, biochemical, fluorogenic substrate. fluorogenic substrate Ex360/Em465; hits give low values. z-score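 (tested at a level between 10 and 100 µM)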. hit rate 0.18% among 65,000. AID 577, 2007;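 active = z-score at -3 or under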;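 also: score is relative to mean and spread of the compound wells of a plate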
Target sequence (P06935 1371-1501 limits assumed): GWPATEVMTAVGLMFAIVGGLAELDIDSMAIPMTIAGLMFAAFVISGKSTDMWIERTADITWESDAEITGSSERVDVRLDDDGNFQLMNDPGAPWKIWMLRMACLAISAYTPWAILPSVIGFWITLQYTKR
Target sequence (P06935 1502-1679 limits assumed): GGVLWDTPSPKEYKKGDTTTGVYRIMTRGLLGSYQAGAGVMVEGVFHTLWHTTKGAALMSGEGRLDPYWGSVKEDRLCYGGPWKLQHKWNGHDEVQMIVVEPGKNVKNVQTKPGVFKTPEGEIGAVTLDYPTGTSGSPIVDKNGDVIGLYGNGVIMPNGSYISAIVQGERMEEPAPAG
Hsc70 ATP site: Hsc70 inhibitors, probe displacement, primary screen, biochemical, fluorescence polarization (AID 568); Heat shock cognate 71 kDa protein (Homo sapiens); Hsc70 fluorescence polarization, probe displacement; higher % means a stronger effect; strong numbers were not always called active; displacement, % at 20 µM; hits with a dose series show IC50 in µM; 83,000 tested, under 10 active;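 active = displacement above 50% without optical interference and an IC50 on retest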;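 also: ATPase domain with a fluorescein-tagged ATP probe; 0% = vehicle and 100% = excess ADP; read after one hour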
* marks the source's active call; other numbers are inactive results; i = inactive; · = not tested or not shown; + = active, no number. An excerpt; rates above refer to the full screens.

molecule	MT1-MMP reporter	WNV protease inh	Hsc70 ATP site
O=[N+]([O-])c1ccc(Sc2nnnn2-c2ccccc2)c(Cl)c1	i	·	1.4%
N#Cc1c2c(c(N3CCN(c4ccccn4)CC3)n3c1nc1ccccc13)CCC2	i	·	2.3%
CCCCc1nnc(NC(=O)CSc2nc(=O)cc(N)n2-c2cccc(C)c2)s1	i	·	-3.3%
CC1(C)c2ssc(=S)c2-c2ccccc2N1C(=O)c1ccco1	i	2.3	-1.0%
O=C(Cc1ccccc1)Nc1ccc(NC(=O)c2ccco2)nc1	i	0.48	-1.6%
Cc1ccccc1OCC(=O)Nc1ccccc1CO	i	-0.35	-5.7%
COc1cc(C(C#N)N2CCCCC2)ccc1O (stereo unspecified)	i	-0.74	2.1%
CC(=O)OCN(C#N)c1nc(N(C)C)nc(N(C)C)n1	i	-0.03	2.7%
Cc1ccc(NS(=O)(=O)c2ccc(NS(=O)(=O)c3cccs3)cc2)cc1	i	·	-5.1%
CCCS(=O)(=O)N1CCN(C(=O)COc2ccc(-c3ccccc3)cc2)CC1	i	-0.3	4.1%
Cc1cccc(N2CCN(C(=O)Cc3ccc(Br)cc3)CC2)c1C	i	·	2.6%
CCCc1cc(=O)[nH]c(SCC(=O)N(CC(C)C)C2CCS(=O)(=O)C2)n1 (stereo unspecified)	i	-0.7	-3.7%
CC(=O)Nc1sc2c(c1C#N)CC(C)(C)NC2(C)C	i	-1.1	-3.0%
CCCC(=O)C1=C(O)C(C(=O)OC)C(C)(C)CC1=Nc1cccc2ccccc12 (stereo unspecified)	i	·	2.7%
CCc1ccc2[nH]c(=O)c(CN(CCN3CCOCC3)C(=O)Nc3ccccc3F)cc2c1	i	-0.49	0.1%
O=c1[nH]c2cc3c(cc2cc1CN(CCc1ccccc1)Cc1nnnn1CC1CCCO1)OCO3 (stereo unspecified)	i	·	8.9%
CCn1c(=O)c(-[n+]2ccccc2)c(O)c2ccccc21	i	-0.84	7.5%
Cc1cc(C)cc(NC(=O)CSc2nnc(CN3CCOCC3)n2C)c1	i	·	2.6%
Cn1cccc1Cc1nnc(SCC(=O)N2CCCCCC2)n1-c1ccc(F)cc1	i	2.5	0.4%
Cc1cccc(N(C)c2cc(C)nc3nc(C)nn23)c1	i	-0.45	-2.7%

The results go on:
molecule	MT1-MMP reporter	WNV protease inh	Hsc70 ATP site
CCc1nc(Nc2ccncc2)c2oc3ccccc3c2n1	i	-0.04	-2.7%
O=C(NCCCNCc1ccccc1)c1ccncc1	i	1.4	-3.8%
COCCN(C(=O)Nc1ccccc1)c1ccccc1C	i	0.15	-1.1%
COc1ccc2c(c1)c1ccccc1n2C	i	0.58	4.2%
Nc1nnc(SCc2cccnc2)s1	i	-0.59	0.2%
COCCNC(=O)c1nc2c(nnn2Cc2cc(C)ccc2C)c(=O)[nH]1	i	·	5.5%
COc1cc(CC(=O)O)c(C(C)=O)cc1OC	i	0.63	-0.5%
COC(=O)C1=C(O)/C(=C\c2ccc(CNC(=O)C(=O)Nc3ccc(C)cc3)o2)N=C1C	i	·	-2.6%
O=C(Oc1ccc(Cl)c2ccccc12)N1CCCCC1	i	·	-4.3%
Cc1cc(=O)c(C(=O)O)cn1Nc1ccc(Cl)cc1	i	·	2.2%
COc1ccc2ccc3c(c2c1)N=C[C@]1(O3)N(C)c2ccccc2C1(C)C	i	·	-0.3%
CCNC(=O)NC(=O)COC(=O)CCCSc1nc2ccccc2[nH]1	i	1.4	-4.6%
CCN(CC)CCNC(=O)CS(=O)Cc1nc(-c2ccc(Cl)cc2)oc1C (stereo unspecified)	i	0.03	-1.6%
O=c1oc(-c2ccc(Br)o2)nc2ccccc12	i	·	-4.5%
CN(CCOc1ccc(Cl)cc1)c1ccc(S(=O)(=O)N2CCCCC2)cn1	i	0.71	-1.5%
Cc1ccc2nc(SCC(=O)Nc3cc(C)on3)[nH]c2c1	i	-0.64	2.4%
Cc1cc2c(NCC(C)O)ncnc2s1 (stereo unspecified)	i	·	2.3%
CCC1=[N+]([O-])C(C)(/C(C)=N\O)N(O)C1(C)C (stereo unspecified)	i	0.39	1.9%
CCC(CO)NC(=O)c1ccc(-c2nn(C)c(=O)c3ccccc23)cc1 (stereo unspecified)	i	·	3.6%
Cc1nc2cc(C(=O)O)ccc2n1-c1ccc(F)cc1F	i	-0.26	9.1%

Two of these compounds in a different format:
Values run as follows: MT1-MMP reporter | WNV protease inh | Hsc70 ATP site
COC(=O)C1=C(O)/C(=C\c2ccc(CNC(=O)C(=O)Nc3ccc(C)cc3)o2)N=C1C
 : i | · | -2.6%
O=C(Oc1ccc(Cl)c2ccccc12)N1CCCCC1
 : i | · | -4.3%

Additional compounds.
molecule	MT1-MMP reporter	WNV protease inh	Hsc70 ATP site
CCn1c(C)c(CCC(=O)O)c(=O)n2nc(-c3ccccc3OC)cc12	i	0.54	9.0%
CCOC(=O)COc1ccc(-c2nnc(-c3ccccc3)o2)cc1	i	0.21	-6.3%
O=C(NCc1nc2ccccc2[nH]1)c1ccc(Cl)c(S(=O)(=O)N2CCCC2)c1	i	-0.33	1.2%
COCP(=O)(c1ccccc1)c1ccccc1	i	·	1.4%
COc1ccsc1C(=O)N1CCN(Cc2ccc3c(c2)OCO3)CC1	i	·	-0.6%
COc1ccc(C(=O)Nn2c(SCC(=O)NCc3ccccc3)nc3ccccc3c2=O)cc1	1.3µM*	·	2.0%
CCOc1ccc(OCC)c(S(=O)(=O)NCCCN2CCOCC2)c1	i	-0.89	7.5%
O=C(CCN1C(=O)COc2ccccc21)NCc1cccnc1	i	-0.51	-4.4%
CCOC(=O)c1cccc(NC(=O)C(NS(=O)(=O)c2ccc3c(c2)CCN3C(C)=O)C(C)C)c1 (stereo unspecified)	i	-1	0.8%
O=C1CC(c2ccco2)c2ccc3ccccc3c2N1 (stereo unspecified)	i	-0.61	0.0%
CCn1nccc1C(=O)Nc1ccc(Cl)cc1Cl	i	-1.2	3.8%
O=C(Nc1ccc(Cl)cc1C(=O)NCCN1CCOCC1)c1ccco1	i	-1.3	-1.2%
CN(C)S(=O)(=O)c1ccc(S(=O)(=O)N(Cc2ccco2)Cc2ccccc2Cl)cc1	i	-0.68	3.6%
CSc1nc(-c2ccco2)cc(C(F)(F)F)c1C#N	i	·	4.4%
O=C(c1cccc(F)c1)N1CCN(c2cccc(Cl)c2)CC1	i	-0.12	0.7%
O=C(O)CC1S/C(=N/N=C/c2ccc(-c3ccccc3[N+](=O)[O-])o2)NC1=O (stereo unspecified)	i	·	4.5%
O=C1c2ccccc2CCC1C(O)c1ccccn1 (stereo unspecified)	i	-0.25	-14%
COc1ccc(-c2cc(-c3ccc(Br)cc3)nc3ncnn23)cc1OC	i	·	-3.8%
Cn1nc(C(=O)NCc2ccccc2)c2ccccc2c1=O	i	1.3	5.3%
CCOc1ccc(Nc2nc(Cc3nnc(SCC(=O)NCc4ccco4)n3CC)cs2)cc1	i	0.08	-5.1%

A section from further up, for reference:
molecule	MT1-MMP reporter	WNV protease inh	Hsc70 ATP site
COc1ccsc1C(=O)N1CCN(Cc2ccc3c(c2)OCO3)CC1	i	·	-0.6%
COc1ccc(C(=O)Nn2c(SCC(=O)NCc3ccccc3)nc3ccccc3c2=O)cc1	1.3µM*	·	2.0%
CCOc1ccc(OCC)c(S(=O)(=O)NCCCN2CCOCC2)c1	i	-0.89	7.5%
O=C(CCN1C(=O)COc2ccccc21)NCc1cccnc1	i	-0.51	-4.4%
CCOC(=O)c1cccc(NC(=O)C(NS(=O)(=O)c2ccc3c(c2)CCN3C(C)=O)C(C)C)c1 (stereo unspecified)	i	-1	0.8%
O=C1CC(c2ccco2)c2ccc3ccccc3c2N1 (stereo unspecified)	i	-0.61	0.0%

(cont.)
molecule	MT1-MMP reporter	WNV protease inh	Hsc70 ATP site
CCOC(=O)c1sc(Nc2ccc(C)cc2C)nc1C	i	·	1.5%
CC1(C)C(=O)C2(CCCCC2)C(=O)OC1c1ccc(O)cc1 (stereo unspecified)	i	-1.4	83%
COC(=O)c1sc(=S)n(-c2cc(F)ccc2F)c1N	i	-0.85	-0.7%
COc1ccc(-c2noc(Cc3ccc(Cl)cc3)n2)cc1OC	i	-0.28	-0.3%
CC(NC(=O)OC(C)(C)C)C(=O)Oc1ccc2ccc(=O)oc2c1 (stereo unspecified)	i	3.9	-2.3%
COC(=O)c1ccc(Cn2c(CN3CCOCC3)nc3ccccc3c2=O)o1	i	-0.51	2.2%
Cc1cccc(-n2c(SCC(=O)N3CCCC3)nnc2-c2ccccn2)c1C	i	1.1	-0.7%
Cc1ccc2cc(C(c3nnnn3CC3CCCO3)N3CCCC4(CCCCC4)C3)c(=O)[nH]c2c1 (stereo unspecified)	i	-0.99	-26%
CCn1cc(C(=O)N2CC(C)CC(C)C2)c(=O)c2cc(S(=O)(=O)N(C)C)ccc21 (stereo unspecified)	i	0.17	1.9%
CC(C)CC1(C)NC(=O)N(CCN2C(=O)c3ccccc3C2=O)C1=O (stereo unspecified)	i	1.4	0.5%
COCCCNC(=O)c1ccc(CS(=O)(=O)c2ccc(Br)cc2)o1	i	-2.8	-1.3%
Cc1cc(NC(=O)COC(=O)C2CCN(S(=O)(=O)c3c(Cl)cccc3Cl)CC2)no1	i	·	-3.3%
COc1cccc(CNC(=O)C2CCN(S(=O)(=O)N3CCCCC3)CC2)c1	i	0.79	-3.1%
Cc1cc(Nc2ccc(F)c(Cl)c2)n2nc(C)nc2n1	i	-0.55	0.2%
CCCc1cc(N2CCCC(C(=O)NCC)C2)n2ncnc2n1 (stereo unspecified)	i	-0.16	1.6%
CCCOC(=O)c1ccc2c(c1)C(=O)N(c1ccccc1)C2=O	i	0.09	5.1%
N#Cc1cc2c(nc1SCc1cccc(Cl)c1)CCCCC2	i	·	-2.2%
COc1ccc(C(=O)O)cc1S(=O)(=O)NCCCN1CCCC1=O	i	0.7	0.1%
CCc1nc(CNC(=O)c2cc(OC)c(OC)c(OC)c2)no1	i	1.5	7.2%
O=C(NC(C(=O)c1ccccc1)N1CCOCC1)c1cccs1 (stereo unspecified)	i	0.93	2.2%

The list continues.
molecule	MT1-MMP reporter	WNV protease inh	Hsc70 ATP site
CC(=O)c1ccc(OCC(O)CN2CCN(Cc3ccccc3)CC2)cc1 (stereo unspecified)	i	-0.39	-3.1%
O=C(CSc1nc2cc(Cl)ccc2o1)NCCc1ccccc1	i	·	-0.7%
O=C(NCc1ccco1)c1cc(-c2ccc(F)cc2)on1	i	0.31	-4.6%
CC(C)OCCCNC(=O)C1CC(=O)N(C2CCCCCCC2)C1 (stereo unspecified)	i	-1.2	-5.3%
COc1cc2[nH]c(=O)n(CCC(=O)NCc3cccnc3)c(=O)c2cc1OC	i	-0.83	1.2%
COc1ccc(CCNC(=O)NC2CCCCC2)cc1	i	·	2.4%
COc1ccc2[nH]c3nc(SC(C)C)nnc3c2c1	+	-1.5	-3.9%
Cc1cccc(NC(=O)c2cc3ccccc3c(=O)o2)n1	i	0.69	5.1%
CCc1ccccc1S(=O)(=O)Cc1ccc(C(=O)N2CCN(c3ccccc3OC)CC2)o1	i	-0.58	-1.0%
COc1ccc(CC(=O)N2CCCc3ccccc32)cc1	i	·	-1.2%
CCCc1nc(SCC(=O)NCc2ccc3c(c2)OCO3)c2c(=O)n(C)c(=O)n(C)c2n1	i	-1	-5.4%
CC(OC(=O)c1nn(C)c(=O)c2ccccc12)C(=O)NCc1ccc2c(c1)OCO2 (stereo unspecified)	i	0.69	-1.9%
CCSc1ncc(C#N)c(=O)[nH]1	i	0.76	-7.0%
COc1ccc(-c2cc(C(F)(F)F)nc(SCC(N)=O)n2)cc1	i	-0.33	-0.7%
N#Cc1cn(CCCOc2ccccc2)c2ccccc12	i	·	1.5%
CCN1CCN(c2ncc(C(=O)Nc3ccccc3C(=O)OC)c3ccccc23)CC1	i	-0.18	1.8%
Cc1nn(Cc2ccc(C(=O)Nc3ccc(Br)c4cccnc34)o2)c(C)c1Br	i	·	1.1%
O=C(O)c1cccc(S(=O)(=O)NCC2CCCO2)c1 (stereo unspecified)	i	-0.41	-10%
O=C1CC(c2ccccc2)CC(O)=C1C=NCC1CCCO1 (stereo unspecified)	i	-1.8	6.6%
Cc1ccc(C2=CSC3=NCCN23)c(C)c1	i	0.76	-1.1%

Further compounds.
molecule	MT1-MMP reporter	WNV protease inh	Hsc70 ATP site
CCCn1c(NCc2c[nH]c3ccccc23)nc2ccccc21	i	·	-8.9%
CCC(=O)NC(O)C(=O)c1ccc(C)cc1 (stereo unspecified)	i	·	-0.4%
CCC(OC(=O)c1nsc(Cl)c1Cl)C(=O)NCc1ccco1 (stereo unspecified)	i	0.18	-9.4%
Cc1cc(C)nc(NC(=O)COc2cc(Cl)cc(Cl)c2)n1	i	·	4.2%
CCn1c(SCc2nnc(-c3ccccc3)o2)nc2c1c(=O)n(C)c(=O)n2C	i	-1.5	-5.9%
O=C(Nc1ccccc1)C1CC=CCC1C(=O)OCC1CCCO1 (stereo unspecified)	i	-1	-0.1%
COc1ccc(CC(C)N2CCN(Cc3ccccc3)CC2)c(OC)c1 (stereo unspecified)	i	2	0.9%
Cc1nnsc1C(=O)Nc1ccc(Cl)cc1	i	·	-0.8%
O=C(NC1CCCc2ccccc21)C1CCN(C(=O)c2sccc2-n2cccc2)CC1 (stereo unspecified)	i	0.21	1.5%

Screening data from PubChem BioAssay.
